# P. yoelii liver – Plasmodium liver-stage growth inhibition, dose response, imaging, Malaria Box, P. yoelii, HepG2-A16-CD81EGFP (AID 602156); 4.8% of 5,700 active; calls after a first round at 10 µM; hits with a dose series show IC50 in µM; P. yoelii liver stage in HepG2-A16-CD81EGFP, imaging; first-round cut-off not given here; in the data active = a potency from the dose series;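 also: infected cells exposed to compound for 48 hours before fixation; stained parasite area by imaging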
# * = called active by the depositor; i = inactive. This is a subset; the hit share may differ from the screen's.
SMILES,P. yoelii liver
COC(=O)[C@@H]1C[C@@H](NC(=O)c2ccc(OC)cc2OC)CN1Cc1ccc(C)cc1C,i
Cn1c(NN=Cc2ccccc2)cc(=O)n(C)c1=O,i
C=CCc1cc(C=c2sc3n(c2=O)C(c2ccccc2)C(C(=O)OCC)=C(C)N=3)cc(OC)c1O (centres undefined),i
COC(=O)c1cn2c(=O)c3ccccc3nc2c2ccccc12,i
N#CN=C(N)c1sc(Nc2ccccc2)nc1N,i
CCN1C(=Cc2c3ccccc3cc[n+]2CC)C=Cc2ccccc21,i
Cc1cc(C)cc(NCC(O)Cn2c3ccc(Cl)cc3c3cc(Cl)ccc32)c1 (centres undefined),i
COc1ccc2nc(C)cc(Nc3ccc(N4CCN(C)CC4)cc3)c2c1,i
c1ccc(-c2cc(N3CCC4(CC3)OCCO4)nc(-c3ccccn3)n2)nc1,i
CCOC(=O)c1ccc(NC(=O)CSc2nc(NCc3ccccc3)c3ccccc3n2)cc1,0.038µM*
C/C(C=C1Sc2ccc3ccoc3c2N1CCO)=C\c1sc2ccc3occc3c2[n+]1CCO,i
Cc1cccc(NC(c2ccncc2)c2ccc3cccnc3c2O)n1 (centres undefined),i
CC(C)C1=Nc2cc(C(N)=O)ccc2CN1C1CC1,i
CCc1c(C)nc2cc(-c3cc(OC)cc(OC)c3)nn2c1NCCCn1ccnc1,i
Cc1cc2c(cc1S(=O)(=O)N(C)C1CCCCC1)OCC(=O)N2,i
COc1cc(C(=O)NC(c2ccc3c(c2)OCO3)c2cc(Cl)c3cccnc3c2O)cc(OC)c1OC (centres undefined),i
Cc1ccc(-c2c[n+](CC(=O)c3ccccc3Cl)c3n2CCC3)cc1,i
N#Cc1ccc(NC(=O)NC2CC3CCCC(C2)N3CCc2ccccc2)cc1 (centres undefined),0.5µM*
CC(C)NC(=O)c1ccc2c(c1)N=C(/C=C/c1ccccc1)N(CC1CCCCC1)C2,i
CC1N=C2c3ccccc3N=C(SCc3ccc(F)cc3)N2C1=O (centres undefined),i
O=C(CN1CCC(NC(=O)c2cccc(F)c2)CC1)NC1CC1,i
CCN(CC)S(=O)(=O)c1ccc(C(=O)c2c(C)c(C(=O)C(F)(F)F)c3ccccn23)cc1,i
C=CCNc1cc(-c2ccccn2)nc(-c2ccccn2)n1,i
O=C(Nc1ccccc1)NC1CC2CCCC(C1)N2CCc1ccccc1 (centres undefined),i
CC(=O)CSc1nnc(-c2ccncc2)n1C,i

# Taken from the listing, 18 compounds:
SMILES,P. yoelii liver
COC(=O)[C@@H]1C[C@@H](NC(=O)c2ccc(OC)cc2OC)CN1Cc1ccc(C)cc1C,i
Cn1c(NN=Cc2ccccc2)cc(=O)n(C)c1=O,i
C=CCc1cc(C=c2sc3n(c2=O)C(c2ccccc2)C(C(=O)OCC)=C(C)N=3)cc(OC)c1O (centres undefined),i
COC(=O)c1cn2c(=O)c3ccccc3nc2c2ccccc12,i
N#CN=C(N)c1sc(Nc2ccccc2)nc1N,i
CCN1C(=Cc2c3ccccc3cc[n+]2CC)C=Cc2ccccc21,i
Cc1cc(C)cc(NCC(O)Cn2c3ccc(Cl)cc3c3cc(Cl)ccc32)c1 (centres undefined),i
COc1ccc2nc(C)cc(Nc3ccc(N4CCN(C)CC4)cc3)c2c1,i
c1ccc(-c2cc(N3CCC4(CC3)OCCO4)nc(-c3ccccn3)n2)nc1,i
CCOC(=O)c1ccc(NC(=O)CSc2nc(NCc3ccccc3)c3ccccc3n2)cc1,0.038µM*
C/C(C=C1Sc2ccc3ccoc3c2N1CCO)=C\c1sc2ccc3occc3c2[n+]1CCO,i
Cc1cccc(NC(c2ccncc2)c2ccc3cccnc3c2O)n1 (centres undefined),i
CC(C)C1=Nc2cc(C(N)=O)ccc2CN1C1CC1,i
CCc1c(C)nc2cc(-c3cc(OC)cc(OC)c3)nn2c1NCCCn1ccnc1,i
Cc1cc2c(cc1S(=O)(=O)N(C)C1CCCCC1)OCC(=O)N2,i
COc1cc(C(=O)NC(c2ccc3c(c2)OCO3)c2cc(Cl)c3cccnc3c2O)cc(OC)c1OC (centres undefined),i
Cc1ccc(-c2c[n+](CC(=O)c3ccccc3Cl)c3n2CCC3)cc1,i
N#Cc1ccc(NC(=O)NC2CC3CCCC(C2)N3CCc2ccccc2)cc1 (centres undefined),0.5µM*

# (next part)
SMILES,P. yoelii liver
CN(CCCNc1ccnc2cc(Cl)ccc12)C(=O)CSc1ccccc1,i
Cc1sc2ncnc(Nc3ccncc3)c2c1C,i
CC(Nc1cc(C)ccn1)=C(C#N)C#N,i
Cc1oc2c(c1C(=O)N1CCCC1)C(=O)c1ccccc1C2=O,i
COc1cccc(CN2CCN(C(=O)c3c(C)noc3C)[C@@H](C)C2)c1,i
Cc1ccc(Cl)cc1N1C(=O)[C@@H]2[C@H](C1=O)C1c3ccccc3C=CN1[C@@H]2C(=O)c1cccs1 (some centres undefined),i
Cc1ccc2c(nc3sc(=Cc4ccc(-c5ccccc5F)o4)c(=O)n32)c1C,i
CCCCOc1nc(-c2ccc(OC)cc2)n(C(=O)c2ccccc2OC)n1,i
COc1ccc(C2C(C(=O)Nc3cccc(Cl)c3)c3ccccc3C(=O)N2C2CCCCC2)cc1 (centres undefined),i
C=CCNC(=O)CSc1ccc(C(=O)Nc2ccc(Cl)cc2F)cc1[N+](=O)[O-],i
COc1ccc2c(C)nc(N=C(N)N)nc2c1,i
COc1cccc(NC(=O)c2ccc(NCCCC3CCCCCC3)c([N+](=O)[O-])c2)c1,i
CC(C)CCN1C(=O)N(CCN(C)C)C(=O)C12CCN(Cc1ccc(O)cc1)CC2,i
COc1cc(C=NNC(=O)c2cccc3ccccc23)ccc1OCC(N)=O,i
CCCn1c(SCCNC(=O)/C=C/c2ccccc2)nc(-c2ccccc2)c1-c1ccccc1,i
CCOC(=O)c1c(NC(=O)Cc2ccc([N+](=O)[O-])cc2)sc2c1CCCC2,i
CCCCNC(=O)N(CCCC(C)Nc1cc(OC)cc2cccnc12)Cc1ccc(OC)c(OC)c1 (centres undefined),i
CCC(=O)N1CCc2cc(S(=O)(=O)N3CCN(c4cccc(C(F)(F)F)c4)CC3)ccc21,i
CCN1C(=Cc2ccc3cc(C)ccc3[n+]2CC)Sc2cc(NC(C)=O)ccc21,i
COc1ccc2nc(C)cc(N(c3ccc(Br)cc3)S(=O)(=O)c3ccc([N+](=O)[O-])cc3)c2c1,i
COc1ccc([N+](=O)[O-])cc1-c1ccc(C=C(C#N)c2nn(CCO)c(N)c2C#N)o1,i
c1cncc(-c2cc(NCCCn3ccnc3)nc(-c3ccncc3)n2)c1,i
O=C1Nc2ccccc2C12Nc1ccccc1-c1nc3ccccc3n12 (centres undefined),i
COc1ccc(OC)c(NC(=O)COc2cc3ccccc3cc2C(=O)Nc2cc(OC)c(Cl)cc2OC)c1,i
CC(C)CNC(=O)c1cnc(NCCC2CCCN2C)nc1NC1CCCC1 (centres undefined),i
# Additional results follow:
SMILES,P. yoelii liver
CCOc1ccc2nc3cc(NC(=O)c4ccc(C)cc4)ccc3c(N)c2c1,i
O=C(C1CCN(c2cccc3c2C(=O)N(C2CC2)C3=O)CC1)N1CCC(O)(c2ccc(Cl)cc2)CC1,i
COc1ccc(-c2cc(C3CCN(c4nc(N)c5cc(OC)c(OC)cc5n4)CC3)[nH]n2)cc1OC,i
CN1CCc2c(C#N)c(N3CCCC3)nc(N3CCCC3)c2C1,i
CCCn1c(=N)c(C(=O)NC2CCCCC2)cc2c(=O)n3cccc(C)c3nc21,i
Cc1ccc(NC(=O)C2CC3c4ccccc4C2c2ccccc23)cc1 (centres undefined),i
CCC[n+]1cccc2ccc3cccnc3c21,0.9µM*
CC(C)(C)c1ccc(C2CC(=O)C3=C(C2)Nc2ccccc2N(C(=O)c2ccccc2Cl)C3c2ccc(F)cc2)cc1 (centres undefined),i
Cn1nc(-c2ccccc2)c2c(C(=O)C(F)(F)F)cc(C(=O)C(F)(F)F)c-2c1-c1ccccc1,i
COc1ccc(NC(=O)Cn2c(-c3ccc(OC)cc3)cn(-c3ccc(C)cc3)c2=O)cc1,i
Cc1nc(-c2ccc[n+](C)c2)sc1C(=O)/C=C/c1ccc(Cl)cc1,i
COC(=O)c1cnn(-c2ccccc2)c1C=NOC(=O)c1ccccc1,i
CC[n+]1c(C=Cc2ccc(C)cc2)ccc2ccccc21,i
CC(=O)Nc1c(NCc2ccccc2)c2ccccc2sc1=O,i
CCN1C=CC(=Cc2cccc[n+]2C)c2ccccc21,i
O=c1c2ccccc2nc2n1CCN2Cc1ccc(Cl)cc1,i
O=c1oc(-c2ccccc2F)nc2sc3c(c12)CCCC3,i
Cc1ccn2c(NC(C)(C)CC(C)(C)C)c(-c3ccccc3OC(=O)c3ccc(Br)cc3)nc2c1,i
O=C(NCCc1ccccc1)c1cnc(NCCCn2ccnc2)nc1Nc1ccccc1,i
Cc1c(Cl)cccc1NCC(=O)NN=C1CCCC1,i
CCOC(=O)c1cnc2ccc(Cl)cc2c1Nc1ccc(OC)c(OC)c1,i
CCCCCCn1c2c(c(=N)c3c1CCC3)CCCC2,i
CN(C)CCN1CCN(c2cccc(-c3cccc4cccnc34)n2)CC1,i
COc1ccc(OC)c(-c2ccc(O)c(CNCC3CC4C=CC3C43CC3)c2)c1 (centres undefined),i
CCCCCCCCCn1c2c(c(=N)c3c1CCC3)CCCC2,i
# Additional entries follow.
SMILES,P. yoelii liver
O=C(Cn1c2ccccc2c(=O)c2cc(Cl)ccc21)Nc1cccc(C(F)(F)F)c1,i
OC1(c2ccc(Br)cc2)CCN(C2CCN(CCc3ccccc3)CC2)CC1,i
CN(CCCNc1ccnc2cc(Cl)ccc12)C(=O)c1ccccc1,i
Cc1cc(N2CCN(C3CCCC3)CC2)n2c(nc3ccccc32)c1C#N,i
CC1=C(CC(=O)c2ccc(Cl)cc2)C(=O)c2ccccc2C1=O,i
CC(C)CCNc1ncc(C(=O)NCC(C)C)c(NCCc2ccccc2)n1,i
O=C(/C=C/c1cnc[nH]1)N1CCC(n2c(CC3CCCC3)nc3cccnc32)CC1,i
CC(C)CN(CC(=O)N1CCC(Nc2nsc3ccccc23)C1)S(C)(=O)=O (centres undefined),i
COc1ccc(/C=C2/SC(=Nc3ccc(F)cc3)NC2=O)c(OC)c1,i
CC(=NNC(=S)N(C)C)c1ccccn1,i
Cc1noc(C)c1S(=O)(=O)N(Cc1ccccc1)CC(O)CN1CCC(NC(=O)c2ccc(F)cc2)C1 (centres undefined),i
O=C(CCl)NCCNc1ncc(C(F)(F)F)cc1Cl,i
Cc1ccc(C(=O)NCCCCNc2ccnc3cc(Cl)ccc23)cc1[N+](=O)[O-],i
CCC12C(=O)C(CC)(C(c3ccccc3)=C1c1ccccc1)C1C(=O)N(c3cccc(C(F)(F)F)c3)C(=O)C12 (centres undefined),i
CCCCCc1ccc(OCCCC[n+]2cccc(C)c2C)c(CCCCC)c1,i
O=C(COc1ccc(Cl)cc1)NCc1ccc(CNc2noc3ccccc23)cc1,i
COC(=O)C1C(=O)C2=C(CC1C)NC(=O)CC2c1cccc(Cl)c1Cl (centres undefined),i
Cc1cccc(OCC(O)CN2CCN(CC(=O)c3ccc(Br)cc3)CC2)c1 (centres undefined),i
Cc1ccn2c(NC(C)(C)CC(C)(C)C)c(-c3ccccc3OC(=O)C(c3ccccc3)c3ccccc3)nc2c1,i
Cc1cccc(-c2cc(C(=O)NC3CCN(Cc4ccccc4)CC3)cc(-n3cnnn3)c2)c1,i
O=c1[nH]n(CC2COC(c3ccccc3)O2)c(=O)c2ccccc12 (centres undefined),i
CCCCCCOC(=O)C1=C(C)NC(=O)NC1c1ccccc1F (centres undefined),i
O=C(c1ccc([N+](=O)[O-])cc1)c1ccc(Cl)c(Cl)c1,1.6µM*
O=C(NCCc1ccc(Cl)cc1)C1CCCN(c2nnc(N3CCCC3=O)s2)C1 (centres undefined),i
COc1cc(C2C(C(=O)OCC(C)C)=C(C)NC3=C2C(=O)CC(c2ccccc2)C3)cc(Br)c1O (centres undefined),i
# (cont.)
SMILES,P. yoelii liver
CCCCN(C(=O)Nc1c(C(C)C)cccc1C(C)C)C(CC)c1nc2ccccc2c(=O)n1-c1cccc(Cl)c1 (centres undefined),i
COc1ccc(C2C(C(=O)NCCN(C)C)c3ccccc3C(=O)N2C2CCCCC2)cc1 (centres undefined),i
CCOC(=O)C1=C(C)NC2=C(C(=O)CC(c3ccc(OC)c(OC)c3)C2)C1c1ccc(Br)cc1 (centres undefined),i
CCOC(=O)c1ccc(NC(=O)c2sc(NC(=O)c3cc(OC)c(OC)c(OC)c3)c(C(=O)OCC)c2C)cc1,i
Cc1ccc(C(C(=O)NC2CCCCC2)N(C(=O)Cn2nnc3ccccc32)c2ccc(S(=O)(=O)NCC3CCCO3)cc2)o1 (centres undefined),i
N#Cc1c(-c2ccccc2)cc(N2CCN(Cc3ccc(Cl)cc3)CC2)n2c1nc1ccccc12,i
CCCN(CCC)CCCNc1ccc(C(=O)Nc2ccc(C)c(F)c2)cc1[N+](=O)[O-],0.65µM*
COc1ccc(C=C2N=C(c3ccc(Cl)cc3)N(c3cc(Cl)ccc3C)C2=O)cc1OC,i
CCCOC(=O)C1=C(C)NC2=C(C(=O)CC(c3ccc(OC)c(OC)c3)C2)C1c1ccccc1Cl (centres undefined),i
COc1ccc(CCNc2nc(NCCCN3CCCCC3C)ncc2C(=O)NCC(C)C)cc1OC (centres undefined),i
CC(C)N(C)Cc1cc(-c2nc3ccccc3s2)ccc1O,i
CCN(CC)CCCC(C)N(Cc1cccc(OCc2ccccc2)c1)C(=O)NCc1ccccc1 (centres undefined),i
Cc1nc(-c2ccc[n+](C)c2)sc1C(=O)C=Cc1ccc(Cl)cc1,i
CC(C)NC(=O)CN(C)C1c2ccccc2CCc2ccccc21,i
CCOC(=O)C1=C(C)NC2=C(C(=O)CC(c3ccc(OC)c(OC)c3)C2)C1c1ccc(Cl)cc1Cl (centres undefined),i
c1ccc(CCNc2cccc3ccccc23)cc1,i
C=CCNC(=O)c1ccc2c(c1)N=C(/C=C/c1ccccc1)N(CCc1cccc(OC)c1)C2,i
C[n+]1ccn(-c2ccc(C(=O)c3ccc(-n4cc[n+](C)c4)cc3)cc2)c1,i
CC(=NNC(=S)NN)c1ccccn1,i
CC(C)Nc1ccc(Nc2ccnc3cc4ccccc4cc23)cc1,i
CC1CN(C2CC(=O)N(c3ccccc3)C2=O)CC(C)O1 (centres undefined),i
CCCCc1ccc(C(=O)NCCCN(C(=O)Nc2ccc([N+](=O)[O-])cc2)c2ccccc2)cc1,i
